# miR-21 reporter: raises the signal of a miR-21 reporter. HeLa miR-21 FLuc reporter, luciferase, 48 h. Potency, µM (titrated, usually from 38.3 µM), without a hit: at the highest dose reporter change, positive = more light. 340,000 tested, under 10 active; active = well fitted rising curve with a large enough effect; inconclusive = small, poorly fitted or top-dose-only effect; inactive = no such curve, though single readings can be large or run the other way;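 further: % of control where 0% means no effect; miR-21 action dims this reporter so a rising signal means less miR-21 action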
#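 HeLa miR-21-FLuc reporter line, endogenous miR-21; 2000 cells/well in DMEM/10% FBS; compound titration up to ~40uM final, 48 h, 37 degree Celsius; luciferase detection reagent, 15 min lysis, CCD luminescence.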
# GLA inh pH 4.5: alpha-galactosidase A (human) inhibition, pH 4.5. P06280. purified enzyme, 4-MU-alpha-Gal fluorescence, pH 4.5. AID 1467. 230,000 tested, under 10 active. activity change, negative = inhibition, % at 105 µM; inconclusive = small, poorly fitted or top-dose-only inhibition, or a rising curve; inactive = flat fitted curve, though single readings scatter; no compound was filed as active;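 further: 0% = full activity with enzyme and -100% = basal without enzyme; dose as in the result columns while the protocol names 77 µM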
# Rango-impB inh: prevents formation of the Rango-importin beta complex | Rango CFP/YFP FRET sensor + importin beta, 45 min | Potency, µM (top dose mostly 92.2 µM), inactives show at the top dose inhibition of complex formation | 0.031% of 340,000 active | Q14974; active = rising FRET ratio curve, often small or poorly fitted; inconclusive = mostly compound fluorescence or quenching in the first reads; inactive = flat curves in all reads;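 further: potency means the concentration at half of the fitted maximal effect; 0% = DMSO wells and 100% = buffer wells lacking importin beta; nearly all actives have a fitted effect of over 15% in size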
# Target sequence (Q14974 whole entry, looked up): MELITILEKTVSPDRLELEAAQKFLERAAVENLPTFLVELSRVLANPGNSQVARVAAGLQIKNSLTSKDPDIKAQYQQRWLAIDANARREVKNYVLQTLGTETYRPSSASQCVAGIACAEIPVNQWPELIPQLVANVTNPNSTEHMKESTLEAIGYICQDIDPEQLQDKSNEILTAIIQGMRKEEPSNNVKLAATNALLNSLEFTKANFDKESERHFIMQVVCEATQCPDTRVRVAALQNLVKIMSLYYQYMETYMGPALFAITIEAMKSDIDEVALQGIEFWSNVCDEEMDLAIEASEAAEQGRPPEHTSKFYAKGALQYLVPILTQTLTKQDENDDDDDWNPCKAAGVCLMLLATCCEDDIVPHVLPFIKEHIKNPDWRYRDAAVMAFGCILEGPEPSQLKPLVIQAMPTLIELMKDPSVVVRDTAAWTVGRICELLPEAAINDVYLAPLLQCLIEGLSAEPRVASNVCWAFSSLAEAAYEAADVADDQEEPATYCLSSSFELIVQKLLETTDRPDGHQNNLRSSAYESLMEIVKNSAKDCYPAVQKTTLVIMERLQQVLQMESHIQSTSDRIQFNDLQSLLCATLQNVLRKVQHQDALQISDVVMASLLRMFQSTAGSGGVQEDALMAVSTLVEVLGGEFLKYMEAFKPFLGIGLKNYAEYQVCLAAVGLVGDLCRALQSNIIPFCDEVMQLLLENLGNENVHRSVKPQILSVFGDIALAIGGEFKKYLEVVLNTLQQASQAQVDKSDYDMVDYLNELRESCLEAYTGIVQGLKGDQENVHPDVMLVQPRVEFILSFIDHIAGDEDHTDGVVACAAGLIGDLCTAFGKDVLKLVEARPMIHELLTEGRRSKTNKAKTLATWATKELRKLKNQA
#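 FRET biosensor (snurportin 1 IBB flanked by EYFP and cerulean), 50 nM, with compound 5 min, then 0.125 microM importin beta in PBS, 1 mM DTT, 0.02% Tween-20, 0.1% BSA. CFP/YFP ratio read after 45 min at room temperature; pre-read flags interference.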
# Rango release inh: inhibition of RanGTP-driven Rango-importin beta dissociation; 0.071% of 340,000 active; O95149+P62826; Biochemical FRET Rango-importin beta, RanGTP-induced dissociation; AID 540253; Potency, µM (highest dose often 46.1 µM), for the others: at the top dose activity change, negative = inhibition; active means falling FRET ratio curve, often poorly fitted, with flat reads before Ran was added; inconclusive means other falling curves, or compound fluorescence or quenching; inactive means flat or rising ratio curve;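 further: potency means the concentration at half of the fitted maximal effect; % of control where 0% means no effect; nearly all actives have a fitted effect of over 45% in size; -100% = wells without RanGTP and RCC1; the record marks most hits as doubtful in a second field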
#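 Two FRET readings bracket the reaction: one 5 min after compound meets Rango–importin beta, another 45 min after RanGTP-RCC1 (0.6 uM Ran, 0.2 uM RCC1, 2 mM GTP) is added. Only the second defines inhibition.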
# Active calls of the source: *; ? = inconclusive; · = not tested or not shown; & = joins results of further samples. This is a subset; rates above refer to the full screens.
SMILES,miR-21 reporter,GLA inh pH 4.5,Rango-impB inh,Rango release inh
COc1ccc(CCN2C(=O)C(Oc3ccccc3)C2c2ccc3c(c2)OCO3)cc1 (stereo not given),0%,0,-2.5%,-4%
Cc1cc(F)ccc1NS(=O)(=O)c1c(C(=O)N2CCOCC2)c(C)n(C)c1C,0%,·,3.1%,-16%
COc1ccccc1N(C)S(=O)(=O)c1ccc(C(=O)Nc2ccncc2)cc1,·,·,-0.2%,-5%
CC1(C)Cc2c(c(-c3ccccc3Cl)[nH]c(=O)c2C#N)CO1,-15%,6,0.7%,1%
N=c1oc2c3c4c(cc2cc1C(=O)Nc1ccccc1)CCCN4CCC3,-45%,7,?,?
O=C(NCc1ccco1)c1ccc2c(c1)N(Cc1ccc(Cl)cc1)CCS2,11%,9,4.9%,4%
COc1cc(/C=C2\NC(=S)N(C)C2=O)ccc1O,-11%,?,?,?
CNC(=O)c1c(NC(=O)CCS(=O)(=O)c2ccccc2)sc(C)c1C,·,·,-6.4%,0%
CSCCC(NS(=O)(=O)c1ccccc1F)C(=O)NCC(C)(C)N1CCOCC1 (stereo not given),·,·,-2.0%,-6%
CNC(=S)NNC(=O)CCn1nc(C)c(Br)c1C,-7%,13,4.3%,16%
CC(C)(C)c1ccc(/C=N/NC(=O)CN2CCS(=O)(=O)CC2)cc1,-8%,·,-2.8%,-6%
Cc1cc(C)cc(NC(=O)CN2CCC(C(=O)c3ccccc3)CC2)c1,5%,·,-4.6%,9%
Cc1ccsc1/C=N/NC(=O)c1nnn(-c2nonc2N)c1CN(C)c1ccccc1,1%,·,4.4%,-1%
Cc1cccc(N2C(S)=C(C#N)C(=O)NC23CCCCC3)c1,4%,-1,-0.7%,-1%
O=C(COC(=O)c1ccc2ncsc2c1)Nc1cccc(Cl)c1,·,·,3.2%,0%
COc1ccc(CCNC(=O)C(=O)NCC2OCCN2S(=O)(=O)c2ccc(C)cc2)cc1 (stereo not given),19%,·,-4.5%,14%
CC(=O)OC1CC2(C)C(C(C)=O)CCC2C2CCC3=CC(=O)CCC3(C)C12 (stereo not given),·,·,-0.6%,7%
Cc1cccc(CSc2nnc(-c3cnccn3)n2C)c1,-36%,-1,2.0%,-12%
CCOC(=O)c1ccc(NC(=O)c2cccc(S(=O)(=O)N3CCN(C(C)=O)CC3)c2)cc1,12%,·,-2.9%,8%
Cc1nn(Cc2c(Cl)cccc2Cl)c(C)c1NC(=O)c1cnn2c(C(F)F)cc(-c3ccccc3)nc12,-10%,0,-1.4%,-12%
O=C1c2ccccc2C(=O)N1CCc1csc(-c2ccccc2)n1,-23%,0,2.0%,15%
Cc1cc(C)c2c(c1)NC(C(=O)O)C1CC=CC21 (stereo not given),0%,·,?,?
Cc1ccc(NC(=O)CS(=O)CC(=O)NC2CCN(Cc3ccccc3)CC2)c(C)c1 (stereo not given),-1%,1,0.1%,24%
CS(=O)(=O)NC1c2cccc3cccc(c23)C1Sc1nncn1/N=C/c1ccco1 (stereo not given),-4%,9,-2.9%,-2%
Cc1cc(C(=O)CN2C(=O)NC(C)(c3cc(F)ccc3F)C2=O)c(C)n1C1CC1 (stereo not given),·,·,-3.2%,32%
O=C(Cn1cc2c(n1)CCCCC2)Nc1ccc(F)cc1F,-20%,0,·,·
CC(=C\c1ccco1)/C=C1/SC(=S)N(CC(=O)O)C1=O,-8%,-15,-0.9%,2%
Cn1nc(C(F)(F)F)c(-c2cccc(C(F)(F)F)c2)c1NC(=O)CSCC(=O)O,-1%,0,-2.9%,-7%
CC(=O)NCCNC(=O)c1ccc(CSc2ccc(Cl)cc2)cc1,-39%,-1,2.2%,-6%
CSCCC(=O)N1CCCC(CNC(=O)c2ccccc2Cl)C1 (stereo not given),5%,5,0.2%,-6%
Cc1ccc(NC(=O)C(=O)NC(C)C2COc3ccccc3O2)cc1 (stereo not given),-10%,4,0.0%,-14%
CCOc1ccc(Nc2nc(-c3cccnc3)cs2)cc1,-60%,·,3.7%,-8%
CCOc1ccccc1N1CCN(CC(=O)N(CC(C)C)c2c(N)n(CC(C)C)c(=O)[nH]c2=O)CC1,-1%,8,0.0%,1%
CCN(CC)CCNC(=O)c1cn(CC)c2ccc(S(=O)(=O)N3CCOCC3)cc2c1=O,-2%&-4%,·,-0.2%,8%
O=C(Nc1ccc(F)cc1)C1CCN(S(=O)(=O)c2cccc3nonc23)CC1,-7%,·,0.6%,2%
COc1cc(C(=O)N2CCC(NC(=O)C(Cc3ccc(C)cc3)NC(C)=O)CC2)cc(OC)c1OC (stereo not given),-2%,-3,2.5%,-10%
O=C(C=Cc1cccc(Cl)c1)c1ccccc1,·,·,1.4%,0%
CN(Cc1ccccc1)C(=O)c1cccc(NC(=O)Cc2cccc(NC(=O)C3CCN(C(=O)C4CC4)CC3)c2)c1,·,·,?,-13%
CCOc1ccccc1NC1c2ccccc2C(=O)N1c1ccc(C)cn1 (stereo not given),-35%,-2,3.6%,18%
Cn1ncc(Cl)c1C(=O)NCc1ccc2c(c1)OCO2,7%,·,-0.6%,-1%
O=[N+]([O-])c1ccc(C2=Nc3cc(Cl)ccc3OC2)cc1,-27%,-7,?,-10%
COc1ccc(S(=O)(=O)N2CCOCC2)cc1NC(=O)CNC(=O)c1cccs1,·,·,0.0%,33%
O=C(CSc1nc2ccccc2s1)Nc1ncccn1,-3%,-4,?,?
O=c1cc(O)c2sc3nc(C(F)(F)F)c4c(c3c2[nH]1)CCCCC4,-18%,10,?,-10%
Cc1nc(SCC(=O)N2CCC(C(N)=O)CC2)n[nH]1,-7%,-5,1.3%,-9%
Cc1ccc(C2(C)NC(=O)N(CC(=O)Nc3cc(S(=O)(=O)N(C)C)ccc3C)C2=O)cc1 (stereo not given),20%,·,0.7%,15%
Cc1c(C(=O)Nc2ccc3c(c2)OCO3)sc2ncn(CC(=O)N3CC(C)CC(C)C3)c(=O)c12 (stereo not given),1%,-7,-0.8%,1%
O=C(OC(C(=O)NC1CCCCC1)c1ccccc1)c1ccco1 (stereo not given),-5%,-3,4.3%,6%
COc1ccc(C(=O)Nc2cccc(-c3ccc(N4CCOCC4)nn3)c2)cc1OC,·,·,-0.1%,29%
CCC(C)NC(=O)CSc1ccc(S(=O)(=O)N(C)C2CCCCC2)cn1 (stereo not given),·,·,-0.5%,-4%
CCOc1cc(N)c(Cl)cc1C(=O)NCC1CN(Cc2ccc(F)cc2)CCO1 (stereo not given),·,·,-1.0%,21%
CC1Cc2nc(SCC(=O)NCC3CCCO3)n(Cc3ccccc3)c(=O)c2S1 (stereo not given),-21%,-4,-2.9%,3%
Cc1ccc(S(=O)(=O)N2CCN(C(=O)COC(=O)CNC(=O)c3ccc(C(C)(C)C)cc3)CC2)c(C)c1,·,·,-6.3%,-11%
Cc1ccc(-c2c[n+](CC(=O)Nc3ccc(C)cc3C)c3n2CCC3)cc1,12%,-1,2.5%,0%
CC(=O)N1N=C(c2cccc([N+](=O)[O-])c2)OC1(C)CC(=O)Nc1ccccc1 (stereo not given),-1%,4,-3.3%,-7%
COc1cc(CO)c(Br)cc1OCC(=O)Nc1ccccc1C,-26%,0,2.1%,-26%
O=C1Nc2c(Br)cc(Br)cc2C1(O)N1CCOCC1 (stereo not given),16%,-7,-0.2%,-1%
N#CCCN(C(=O)COC(=O)c1ccc(S(=O)(=O)Nc2ccccc2)cc1)c1ccccc1,0%,-3,-2.5%,7%
Cn1c(=O)c2nc(Cl)c(-c3ccccc3)nc2n(C)c1=O,-5%,12,-1.1%,-2%
CC1CC(C)CN(S(=O)(=O)c2ccc(F)c(C(=O)Nc3ccc(Cl)cc3F)c2)C1 (stereo not given),-2%,13,1.2%,9%
# (next part)
SMILES,miR-21 reporter,GLA inh pH 4.5,Rango-impB inh,Rango release inh
CCn1c(=O)n(CC)c2cc(NC(=O)C(C)c3ccccc3)c(Br)cc21 (stereo not given),4%,·,-1.9%,-21%
CN1CCC(NC(=O)c2cccs2)CC1,-5%,-19,-0.4%,-4%
CCc1ccc(/C(C)=N/NC(=O)c2ccc(-n3cnnn3)cc2)cc1,·,·,3.1%,29%
COc1ccc(S(=O)(=O)NCC2CCCO2)cc1C(=O)O (stereo not given),-1%,·,6.5%,-8%
COc1ccc(CNC(=O)CSc2nc3nc(C)cc(C)n3n2)cc1,3%,-8,-0.3%,2%
CCCC(=O)c1cc2cc(Cl)ccc2oc1=O,-2%,1,0.9%,1%
Cc1ccccc1C(=O)N[C@H](C(=O)Nc1ccc(Cl)c(Cl)c1)C(C)C,-15%,1,?,-30%
NC1(C(=O)O)CCCCC1c1ccccc1 (stereo not given),·,·,-0.9%,9%
CCN(c1ccccc1)S(=O)(=O)c1ccc2c(c1)C(C)(C)C(=O)N2C,2%,·,1.0%,-6%
Cc1ccc2c(c1)N(CC(=O)N(Cc1ccc3c(c1)OCO3)CC1CCCO1)C(=O)C(C)O2 (stereo not given),-2%,-9,4.5%,10%
COc1cccc(CC(=O)OC(C)C(=O)Nc2ccc(N3CCOCC3)cc2)c1 (stereo not given),·,·,5.7%,-2%
COc1cc(NC(=O)CCCSc2nc(-c3ccco3)cc(C(F)(F)F)n2)cc(OC)c1OC,14%&-1%,-28,-5.1%,0%

# Rewritten with two lines to a compound: part of the list above.
# Order of values: miR-21 reporter, GLA inh pH 4.5, Rango-impB inh, Rango release inh
- N#CCCN(C(=O)COC(=O)c1ccc(S(=O)(=O)Nc2ccccc2)cc1)c1ccccc1
 : 0%, -3, -2.5%, 7%
- Cn1c(=O)c2nc(Cl)c(-c3ccccc3)nc2n(C)c1=O
 : -5%, 12, -1.1%, -2%
- CC1CC(C)CN(S(=O)(=O)c2ccc(F)c(C(=O)Nc3ccc(Cl)cc3F)c2)C1 (stereo not given)
 : -2%, 13, 1.2%, 9%
- CCn1c(=O)n(CC)c2cc(NC(=O)C(C)c3ccccc3)c(Br)cc21 (stereo not given)
 : 4%, ·, -1.9%, -21%
- CN1CCC(NC(=O)c2cccs2)CC1
 : -5%, -19, -0.4%, -4%
- CCc1ccc(/C(C)=N/NC(=O)c2ccc(-n3cnnn3)cc2)cc1
 : ·, ·, 3.1%, 29%
- COc1ccc(S(=O)(=O)NCC2CCCO2)cc1C(=O)O (stereo not given)
 : -1%, ·, 6.5%, -8%
- COc1ccc(CNC(=O)CSc2nc3nc(C)cc(C)n3n2)cc1
 : 3%, -8, -0.3%, 2%
- CCCC(=O)c1cc2cc(Cl)ccc2oc1=O
 : -2%, 1, 0.9%, 1%
- Cc1ccccc1C(=O)N[C@H](C(=O)Nc1ccc(Cl)c(Cl)c1)C(C)C
 : -15%, 1, ?, -30%
- NC1(C(=O)O)CCCCC1c1ccccc1 (stereo not given)
 : ·, ·, -0.9%, 9%
- CCN(c1ccccc1)S(=O)(=O)c1ccc2c(c1)C(C)(C)C(=O)N2C
 : 2%, ·, 1.0%, -6%
- Cc1ccc2c(c1)N(CC(=O)N(Cc1ccc3c(c1)OCO3)CC1CCCO1)C(=O)C(C)O2 (stereo not given)
 : -2%, -9, 4.5%, 10%
- COc1cccc(CC(=O)OC(C)C(=O)Nc2ccc(N3CCOCC3)cc2)c1 (stereo not given)
 : ·, ·, 5.7%, -2%
- COc1cc(NC(=O)CCCSc2nc(-c3ccco3)cc(C(F)(F)F)n2)cc(OC)c1OC
 : 14%&-1%, -28, -5.1%, 0%

# Going on with the list:
SMILES,miR-21 reporter,GLA inh pH 4.5,Rango-impB inh,Rango release inh
CCCCN(CC)CCNC(=O)c1cc2c(=O)[nH]c3ccccc3c2n1C,-3%&2%,-1,-0.6%,17%
CCOc1ccc(N2C(=O)CC(N3CCc4ccccc43)C2=O)cc1 (stereo not given),-5%,1,4.2%,-4%
Cc1ccc(NC(=O)c2scc3c2CCCC3)cc1,-39%,-1,2.5%,3%
CN(Cc1ccccc1)C(=O)c1cc(=O)[nH]c2ccccc12,-3%,·,0.0%,3%
Cc1ccccc1-c1nc2ccccc2o1,0%,8,1.3%,15%
CCC(C)c1c(O)nc(SCC(=O)N2CCOCC2)[nH]c1=O (stereo not given),-4%,-13,1.0%,-1%
Cc1ccc(S(=O)(=O)N2CCC(C(=O)OC(C)C(=O)N(C)c3ccccc3)CC2)cc1C (stereo not given),·,·,9.2%,-1%
CCOc1ccc(CSCCNC(=S)Nc2ccccc2)cc1,12%,-6,-0.6%,-13%

# From PubChem
